High-throughput results (PubChem)
VDR inhibitor: inhibitors of human vitamin D receptor | 400,000 compounds, 0.93% hits | Potency, µM, for the others: max response, negative = inhibition, most hits filed as inhibitors | P11473 | VDR-SRC2-3 peptide fluorescence polarization, 2 h; active = well fitted inhibition curve with a large enough effect; inconclusive = small, poorly fitted or top-dose-only effect, or another doubt; inactive = no such curve, though single readings can be large or run the other way; also: series mostly up to about 120 µM
Target sequence (P11473 whole entry, looked up): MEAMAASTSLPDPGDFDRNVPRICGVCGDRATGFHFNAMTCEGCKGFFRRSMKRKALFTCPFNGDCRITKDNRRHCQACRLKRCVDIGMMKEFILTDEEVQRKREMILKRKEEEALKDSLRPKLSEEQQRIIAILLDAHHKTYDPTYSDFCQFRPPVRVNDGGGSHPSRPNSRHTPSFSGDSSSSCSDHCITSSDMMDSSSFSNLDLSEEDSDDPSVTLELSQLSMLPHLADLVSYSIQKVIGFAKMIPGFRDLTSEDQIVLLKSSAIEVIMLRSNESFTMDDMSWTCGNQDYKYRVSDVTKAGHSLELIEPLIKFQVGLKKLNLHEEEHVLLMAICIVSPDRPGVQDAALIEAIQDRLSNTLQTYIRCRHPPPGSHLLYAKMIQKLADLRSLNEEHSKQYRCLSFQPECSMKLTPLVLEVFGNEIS
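After 23 nl compound addition and a short centrifugation, plates sat for 2 hours at ambient temperature; polarization of fluorescence then indicated loss of VDR binding to peptide SRC2-3.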
* hit, by the source's call; ? = inconclusive; & = joins results of further samples; [ ] = dose if it differs, or a comment. % is scaled to controls: 0 for no effect and ±100 for the full control effect; potency is read from the fitted curve at half-maximal effect. Not all compounds are listed (hit frequency here may not be typical).

smiles	VDR inhibitor
Cc1cccc(NC(=O)CNC(=O)CN2C(=O)NC(C)(CCC(C)C)C2=O)c1C (stereo unspecified)	-3%
COc1cc(C#Cc2c(-c3cncn3C)n(C)c3ccc(-c4cnc(N5CCOCC5)nc4)cc23)cc(OC)c1	5%
COc1ccc(NC(=O)CCn2nc(-c3ccc(Cl)cc3)c3ccccc3c2=O)cc1	-21%
Cc1ccc(Cl)cc1NC(=O)COC(=O)C1CCCC1	10%
COc1ccc(-c2cc(NCc3ccc(F)cc3)n3cnnc3n2)cc1	9%
CCn1c(SCC(=O)Nc2nc(C)c(C)s2)nnc1-c1cccs1	-10%
Oc1c(C(c2ccc(Cl)cc2Cl)N2CCN(c3ccccc3)CC2)sc2nc(-c3ccco3)nn12 (stereo unspecified)	0%
CSCC[C@H](N)C(=O)N1CCC(C(=O)N[C@H](C)C(=O)NC(C)c2ccccc2)CC1 (stereo partly specified)	-10%
CN(CC(=O)Nn1cnnc1)S(=O)(=O)c1ccccc1	-2%
COc1cc(C(=O)OCC(=O)NCc2ccc(F)cc2)cc(NC(=O)c2cccs2)c1OC	-7%
COc1ccc(C(=O)NCc2nnc(SCC(=O)c3ccc(F)cc3)n2C)cc1OC	-16%
O=C(Cn1cccc1C(=O)c1ccccc1)NCCCN1CCOCC1	28%
Cc1c(NC(=O)C(C)OC(=O)c2ccc(NC(=O)CC#N)cc2)c(=O)n(-c2ccccc2)n1C (stereo unspecified)	-1%
CCOC(=O)c1cn(-c2ccccc2)nc1-c1ccncc1	-7%
COc1ccc(OC)c(CNC(=O)Cc2c(C(=O)O)[nH]c3ccc(Cl)cc23)c1	-9%
O=C(NC(=S)Nc1ccc(N2CCOCC2)cc1)c1cccc([N+](=O)[O-])c1	-15%
CN1CCC(=C2c3ccccc3C=Cc3ccccc32)CC1	-20%&-4%&0%&-1%
Cc1ccccc1C(=O)c1cccn1CC(=O)N1CCCCCC1	10%
CCn1cc2nc(SCc3c(F)cccc3Cl)n(CCc3ccccc3)c(=O)c2n1	7%
Cc1cc(NS(=O)(=O)c2ccc(NC(=O)/C=C/c3ccc(C)o3)cc2)nc(C)n1	?
CCc1cccc(C)c1NC(=O)CSc1nnc(CCCOc2ccc(Cl)cc2Cl)n1C	12%
O=C(NNc1nc2cc3c(cc2s1)OCO3)c1ccc(F)cc1	8%
Cc1cccc(NC(=O)Cc2noc3ccccc23)c1C	5%
CCn1cc(C(=O)NCCc2ccc(OC)c(OC)c2)c(=O)c2cc(S(=O)(=O)N3CCCCCC3)ccc21	13%
COCCCNC(=S)N1CCN(C(=O)C(=O)Nc2ccc(C(=O)OC)cc2)CC1	4%
CCOC(=O)N1CCC(Nc2ccc3nnc(-c4ccccc4)n3n2)CC1	-1%
O=C(O)COc1ccccc1/C=N/NC(=O)c1cc(-c2ccc(F)cc2)nc2ccccc12	-13%
O=C(Nc1cccc(/C=C/c2ccccn2)c1)c1ccc(-n2cncn2)cc1	4%
Cn1c(=O)n(C)c2cc(/C=C(/C#N)C(=O)NCc3ccco3)ccc21	-6%
Cc1cccc(CN2CCc3c([nH]c4ccccc34)C2CC(C)C)n1 (stereo unspecified)	-8%
Cc1cc(C(=O)N2CCC(C(=O)O)CC2)c(C)o1	8%
COC(=O)NNC(=S)Nc1cc(OC)ccc1OC	-14%
CN1CCN(c2c(/C=N/O)c3ccccc3n2C)CC1	4%
CCCC(C)c1nc(C(N)=O)c2[nH]c(=O)n(-c3ccc(OC)c(OC)c3)c2n1 (stereo unspecified)	-14%
O=c1cc(O)c2sc(Nc3ccc(F)cc3)nc2[nH]1	-5%
CC(=O)Nc1ccc(NC(=O)CSc2nnnn2-c2ccc(F)cc2)cc1	9%
CNC(=O)Nc1nnc(C(C)(C)C)s1	5%
CCN(CC)CC(=O)Nc1ccc([N+](=O)[O-])cc1	-7%
CCOC(=O)c1ccc(S(=O)(=O)NCCNCc2ccccc2)cc1	9%
C=CCCCCCCCCC(=O)Nc1c[nH]c(=O)[nH]c1=O	1%
O=C(NCCNC(=O)Oc1cccc2ccccc12)Oc1cccc2ccccc12	-5%
CC(C)C(NC(=O)c1ccc(C(C)(C)C)cc1)C(=O)NCCc1ccccn1 (stereo unspecified)	-6%
CC(C)C(=O)Nc1ccc(-c2csc(-c3ccccc3)n2)cc1	6%
CC(=O)c1cccc(CN2CCN(Cc3ccccc3)C(CCO)C2)c1 (stereo unspecified)	0%
COc1ccccc1/C=C/C(=O)NCC(=O)N/N=C/c1cccnc1	-12%
COc1ccc(CN2C(=O)c3cccc4cccc2c34)cc1F	6%
O=C(O)c1cccc(S(=O)(=O)Nc2ccc(N3CCCCC3)cc2)c1	-21%
CC(NC(N)=O)C(=O)OCC(=O)c1ccc(-c2ccccc2)cc1 (stereo unspecified)	-4%
CCc1ccc(C2(O)CC(C(F)(F)F)=NN2C(=O)Cc2ccc([N+](=O)[O-])cc2)cc1 (stereo unspecified)	2%
Cc1nn(-c2ccccc2)c2c1C(=O)N(c1ccccc1)C(=O)C(C)(C)C2	-5%

Ordered by value in VDR inhibitor (largest number first): three of the compounds above.
Structure,VDR inhibitor
CC(=O)Nc1ccc(NC(=O)CSc2nnnn2-c2ccc(F)cc2)cc1,9%
Cc1cc(C(=O)N2CCC(C(=O)O)CC2)c(C)o1,8%
COc1ccccc1/C=C/C(=O)NCC(=O)N/N=C/c1cccnc1,-12%

Further results:
smiles	VDR inhibitor
O=C(O)CC/C(=N\NC(=O)c1ccncc1)c1ccccc1	-16%
CCOC(=O)c1ccc(Oc2ccc(C(F)(F)F)cn2)cc1	17%
Cc1ccccc1C(=O)NCc1ccc2c(c1)CCN2C(=O)c1ccc(F)cc1	14%
CC(C)CN1CC[C@@]2(CCCN(C(=O)c3cnccn3)C2)C1	-4%
COc1cccc(NC(=O)N2CCCC2C(=O)NC2CC2)c1 (stereo unspecified)	12%
O=C(Cn1nc(Cc2cccnc2)c2ccccc2c1=O)Nc1cccnc1Cl	?
CCS(=O)(=O)c1nc(S(=O)(=O)c2ccc(Cl)cc2)c(NCc2ccccn2)s1	7%
CCCc1nc(SCC(=O)NCC2CCCO2)c2c(=O)n(C)c(=O)n(C)c2n1 (stereo unspecified)	13%
Cc1c(C(=O)N2CCCCCC2)c(S(=O)(=O)NCc2ccc(Br)cc2)c(C)n1C	0%
CCN(CC)C(=O)CSc1nc(O)c(Cc2ccc(OC)cc2)c(=O)[nH]1	-6%
O=C(COC(=O)c1cc(S(=O)(=O)Nc2ccccc2Cl)ccc1O)Nc1nc2ccccc2s1	16%
O=C(N/N=C/c1cccs1)c1n[nH]c2c1CCC2	-2%
CCc1ccccc1NC(=O)CSc1ncn[nH]1	5%
CCOc1ccc(CC(=O)Nc2nccs2)cc1	7%
COc1ccc(NC2=NC(=S)N(c3ccccc3C)C23CCCCC3)cc1	9%
Cc1ccc(S(=O)(=O)NNC(=O)c2cnn(-c3ccccc3)c2-n2cccc2)cc1	15%
Oc1[nH]c2ccccc2c1N=Nc1ccccc1	33%[activator]
COc1ccc(C(C(N)=O)c2ncc(C(F)(F)F)cc2Cl)cc1 (stereo unspecified)	-20%
Nc1nc2nc(-c3ccc(OCc4ccccc4)cc3)cc(C(F)(F)F)n2n1	6%
CCNC(=O)CC1C(=O)N(c2ccc(C)cc2)C(=O)N1CCOC (stereo unspecified)	3%&6%
CCC1Oc2ccc(C)cc2N(CC(=O)N(Cc2cccnc2)Cc2ccc(C)o2)C1=O (stereo unspecified)	-1%
Cc1nn(C(C)(C)C)c(OC(=O)C(C)(C)C)c1Sc1ccccc1	-8%
COc1cc(C(=S)N2CCCCC2)ccc1O	-13%
CNc1oc(-c2ccc(Cl)cc2)nc1P(=O)(c1ccccc1)c1ccccc1	-14%
COc1ccc(C2N=C(c3ccccc3)C(C)(C)N2O)cc1OC (stereo unspecified)	-22%
COc1ccc(C(=O)NCC(=O)O)cc1	7%
O=C(c1cccc2cccc(O)c12)N1CCCCC1	1%
Cc1ccc(S(=O)(=O)Nc2ccc3c(c2)nc(CCN2CCCC2)n3C)cc1	-26%
Cc1nn(C)c(C)c1C(C)NC(=O)c1ccc(OC2CCN(Cc3ccccn3)CC2)cc1 (stereo unspecified)	-12%
COc1ccc(NC(=O)c2cc(C(C)C)on2)c(OC)c1	-18%
O=C(Nc1ccc(OCc2ccccc2)cc1)Nc1cccnc1	6%
O=C1CCCN1CCCN1CC(C(=O)N(CCO)Cc2ccccc2)CCC1=O (stereo unspecified)	0%
COc1cccc(NC(=O)CN(C)C(=O)CSc2nc(C)cc(C)n2)c1	-8%
COc1cc(C(=S)N2CCCC2)ccc1OS(=O)(=O)c1ccc(NC(C)=O)cc1	1%
Cc1cc(C(=O)NCCN2CCOCC2)ccc1[N+](=O)[O-]	-1%
CN1C(=O)CC(N2CCC(C(N)=O)(N3CCCCC3)CC2)C1=O (stereo unspecified)	-15%
CCOC(=O)CC(=O)CSc1nc2ccsc2c(=O)n1Cc1ccccc1	-2%
BrC(=C\c1ccccc1)/C=N/Nc1ccc2nncn2n1	-19%
COCCNc1nc(N)c([N+](=O)[O-])c(NCc2ccccc2)n1	5%
Cc1ccccc1-c1nnc(SCC(=O)Nc2cccc(C)c2C)o1	13%
Cc1ccc(Cn2ccc(NC(=O)c3cc(C(C)C)on3)n2)cc1	12%
O=C(NNC(=O)c1ccc(Br)s1)NC1CCCCC1	5%
C[C@H](NC(=O)N1CCn2c1nc1ccccc12)C(=O)NC1CC1	9%
COC(=O)c1ccc(/C=N/NC(=O)c2ccc3nc[nH]c3c2)cc1	-1%
COc1ccc(-c2cn[nH]c2C)cc1OC	0%
CCNC(=S)NS(=O)(=O)c1ccc(F)cc1	-2%
O=C(O)CCc1ccc(-c2ccccc2)n1-c1cccc(C(=O)O)c1	3%
Cc1ccc2scc(N3CCN(c4ccccc4)CC3)c(=O)c2c1	13%
CCOc1c(Br)cc(C(N)=O)cc1OCc1ccccc1	-7%
Cc1ccc(S(=O)(=O)N(C)S(=O)(=O)c2ccc(C)cc2)cc1	-12%

Sorted by length of the SMILES (low to high): 7 of the compounds above
smiles	VDR inhibitor
COc1ccc(C(=O)NCC(=O)O)cc1	7%
O=C(c1cccc2cccc(O)c12)N1CCCCC1	1%
O=C(Nc1ccc(OCc2ccccc2)cc1)Nc1cccnc1	6%
Cc1cc(C(=O)NCCN2CCOCC2)ccc1[N+](=O)[O-]	-1%
Cc1ccc(Cn2ccc(NC(=O)c3cc(C(C)C)on3)n2)cc1	12%
Cc1ccc(S(=O)(=O)Nc2ccc3c(c2)nc(CCN2CCCC2)n3C)cc1	-26%
Cc1nn(C)c(C)c1C(C)NC(=O)c1ccc(OC2CCN(Cc3ccccn3)CC2)cc1 (stereo unspecified)	-12%

(list continues)
smiles	VDR inhibitor
O=C(NC1CCCCC1)C(c1ccccc1)N1CCOCC1 (stereo unspecified)	-5%
CN(C(=O)COC(=O)c1nc(Cl)c(Cl)c(Cl)c1Cl)C1CCS(=O)(=O)C1 (stereo unspecified)	-5%
Cc1cc2nc(N)sc2cc1[N+](=O)[O-]	-1%
Cc1ccc(NS(=O)(=O)c2ccc3[nH]c4c(c3c2)CCCC4)cc1N(C)C	6%
CC(C)C[C@@H](CC(=O)N[C@H](CC(=O)N[C@@H]1CCNC[C@H]1C(=O)N[C@H](CC(=O)N[C@@H](CCC(=O)O)CC(=O)O)Cc1c[nH]c2ccccc12)C(C)C)NC(=O)[C@@H]1CNCC[C@H]1N	1%
O=C(Cc1ccccc1[N+](=O)[O-])N/N=C/c1cccnc1	-16%
Cc1ccc(C)c(/C(O)=C2\C(=O)C(=O)N(CCCn3ccnc3)C2c2ccncc2)c1 (stereo unspecified)	-9%
CCn1c(Cc2ccccc2)nnc1SCc1ccc([N+](=O)[O-])cc1	-13%
O=C(/C=C/c1cccc(F)c1)Nc1cc(S(=O)(=O)N2CCOCC2)ccc1N1CCCC1	7%
CCCOc1ccc(S(=O)(=O)NCCN2CCOCC2)c2ccccc12	-6%
CCCCNC(=O)CC1Nc2ccccc2NC1=O (stereo unspecified)	6%
O=C(NC1CCCCC1)c1ccc(CSc2nc3cccnc3n2Cc2ccccc2F)cc1	14%
CN(C)CCNC=C(C(=O)Nc1ccc(Cl)cc1Cl)C(=O)Nc1ccc(Cl)cc1Cl	-8%
COC(=O)N/N=C/c1c[nH]c2ccccc12	-12%
COc1ccc(N2CC(NS(=O)(=O)c3ccc(F)cc3)CC2=O)cc1 (stereo unspecified)	-9%
O=C(Nc1ccccc1Cl)c1c(F)c(F)c(F)c(F)c1F	-15%
C/C(CC(=O)NC(C)(C)C)=N\NC(=O)COc1ccc(C)cc1Br	-12%
COc1ccc(-c2cc3nc(C4CCN(C(=O)OC(C)(C)C)CC4)c(C(=O)Nc4cc(Cl)cc(Cl)c4)cn3n2)cc1	-6%
Cc1cc(C(F)(F)F)nc(SCC(=O)NC2CC3CCC2C3)n1 (stereo unspecified)	8%
CC12CCC3c4ccc(OCC(=O)O)cc4CCC3C1CCC2=O (stereo unspecified)	3%
Cc1cc(OCC(=O)Nc2cccc(S(=O)(=O)NC3=NCCCCC3)c2)ccc1Cl	3%
COc1cc(SC)ccc1C(=O)N1CCN(S(=O)(=O)/C=C/c2ccccc2)CC1	-4%
COc1ccc(C)cc1Nc1nc(N)c2cc(OC)c(OC)cc2n1	12%&5%
CCS(=O)(=O)Nc1ccc(C2=NN(C(=O)c3ccccc3)C(c3cccs3)C2)cc1 (stereo unspecified)	-18%
Cc1cc(C)c(NC(=O)Cn2cc3c(n2)CCCC3)c(C)c1	0%
